From PubChem BioAssay
H5N1 CPE = MDCK cell protection from H5N1 avian flu; cytopathic effect, luminescence, 72 h; stronger effect = higher value; no value below 0 was filed and about half of the inactive calls have no number; reference of the scale not given here; inhibition, % at 50 µM; hit rate 0.07% among 96,000; in the data active = inhibition above about 25%
Starred values were filed as active, the others as inactive; i = inactive.

SMILES | H5N1 CPE
CC(C)N1C(=O)CN(C2CCCCCC2)C(=O)C1c1ccccc1F (stereo unspecified) | i
CC(NC(=O)Nc1ccccc1C(F)(F)F)C1CCCO1 (stereo unspecified) | i
COC(=O)c1ccccc1OCC(=O)N1CCN(c2ccc(OC)cc2)CC1 | i
C(=N\N1CCN(C2c3ccccc3-c3ccccc32)CC1)/c1cccnc1 | i
CCOC(=O)C1=C(N2CCCCC2)c2cc3c(n2C1=O)CCCC3 | 3.0
COCCCNC(=O)CCc1ccc(S(=O)(=O)Nc2ccc(C)cc2)cc1 | i
CCOc1ccc2[nH]c(=O)c(CN(Cc3ccc(C)cc3)C(=O)N3CCCC3)cc2c1 | i
COc1cc(C(=O)NCc2nnc(SCC(=O)N3CCCCC3)o2)cc(OC)c1OC | i
O=C(NCc1cccnc1)c1cccnc1Sc1ccc(Cl)cc1 | 0.1
Cc1ccccc1Cn1ccc(-c2ccc(Cl)cc2)c(C#N)c1=O | 1.2
CCOc1ccc(CCNC(=O)c2oc3c(c2C)-c2[nH]ncc2CC3)cc1OCC | 1.7
CC1=C(C#N)C(c2cn(-c3ccccc3)nc2-c2cccs2)C(C#N)=C(C)N1 | 0.6
OC(Cn1c2ccccc2c2ccccc21)C[n+]1ccccc1 (stereo unspecified) | i
COCCNCC(=O)NCC12CC3CC(CC(C3)C1)C2 | i
CCOC(=O)c1c(-c2ccc(F)cc2)cn2ccccc12 | 3.7
CCOc1ccc(-n2c(-c3ccco3)n[nH]c2=S)cc1 | 0.5
O=C(NCc1ccc2c(c1)OCO2)C1CCCN(S(=O)(=O)c2cccc3cccnc23)C1 (stereo unspecified) | 1.1
FCCCOc1ccc(/C=N/OCc2ccc(Cl)cc2)cc1 | i
C=CCNC(=O)c1ccccc1NS(=O)(=O)c1ccccc1 | 1.1
C=CCSc1nc(Oc2ccccc2)c2sccc2n1 | 0.9
Cc1cccc(N(CC(=O)Nc2ccc(F)cc2)S(C)(=O)=O)c1 | 0.8
O=C(N/C=N/OCc1ccc(Cl)cc1Cl)NOCc1ncc(C(F)(F)F)cc1Cl | i
O=C(N/N=C/c1ccc(F)cc1)c1ccc(Br)cc1 | i
COc1ccc(OC)c(S(=O)(=O)Nc2cccc(C(C)=O)c2)c1 | 0.8
Cc1nn(C)c(C)c1S(=O)(=O)N(CC(=O)N1CCc2ccccc2C1)c1ccc(C(C)C)cc1 | i
OC(COc1ccc(OCC(O)CN2CCCCCC2)cc1)CN1CCCCCC1 (stereo unspecified) | 1.5
CC1CCN(S(=O)(=O)c2ccc3c(c2)CCN3C(=O)CCC(=O)O)CC1 | 0.2
CN(c1ccc(C(=O)N2CCCCC2)cc1)S(C)(=O)=O | 0.1
C=CCn1c(SCCOc2ccccc2)nnc1C(C)NC(=O)c1ccccc1 (stereo unspecified) | i
O=C(NC(=S)NC1CCSC1=O)c1ccccc1Cl (stereo unspecified) | i
CCN(CC)C(=O)CSc1nnc(-c2ccccc2)n1-c1ccccc1 | 0.7
COc1ccc([N+](=O)[O-])cc1/C=N/NC(=O)/C(=C\c1cccs1)NC(=O)c1ccccc1 | 0.5
O=S(=O)(c1ccc2c(c1)C(=NO)c1cc(S(=O)(=O)N3CCCCC3)ccc1-2)N1CCCCC1 | i
CNC(=O)c1c(C)nc(SCC(=O)NCc2ccc(OC)cc2)c(C#N)c1-c1ccco1 | 0.9
CCC(=O)N1CCc2cc(S(=O)(=O)CCC(=O)NCCc3ccc(OC)c(OC)c3)ccc21 | 2.2
O=c1ccn(-c2cccc(C(F)(F)F)c2)nc1-c1ccn(-c2ccccc2)n1 | i
CCn1c(SCc2ccc(C#N)cc2)nnc1-c1cccc(Cl)c1 | 0.0
Cc1cc(C)c(C(=O)c2ccc(C(=O)NC(C)(C)C)cc2)c(C)c1 | 0.3
NC(=S)Nc1nc2ccccc2[nH]c1=O | i
O=C(CC1CCCCC1)Nc1c2c(nn1-c1ccc(F)cc1)CS(=O)(=O)C2 | i
O=C(NCc1ccccc1)C1CCN(C(=O)NCc2ccccc2)CC1 | 0.9
CCCn1nnc(NC(=O)COc2ccccc2Cl)n1 | i
CS(=O)(=O)N1CCN(C(=O)c2csc3ccccc23)CC1 | i
CN1CCN(S(=O)(=O)c2cccc(C(=O)Nc3sc4c(c3C(N)=O)CCCC4)c2)CC1 | i
COc1ccc(CCn2c(N)c(C#N)c3nc4ccccc4nc32)cc1OC | i
Cc1ccc(NC(=O)CCN2CCc3ccccc3C2)cc1 | i
CCCS(=O)(=O)N1CCN(C(=O)c2cccc(OC)c2)CC1 | 0.3
CC(C)C1=NN(C(=O)c2ccccc2)C(O)(C(C)(C)C)C1 (stereo unspecified) | 0.6
Cn1c(C(C(=O)NCC2CCCO2)N(C(=O)Cn2nnc3ccccc32)C2CCCCC2)nc2ccccc21 (stereo unspecified) | 1.0
COc1ccc(N(CC(=O)Nc2cc(C)ccc2OC)S(=O)(=O)c2c(C)noc2C)cc1 | i

Later entries:
SMILES | H5N1 CPE
COC(=O)/C(=C\Nc1ccccc1N)c1ncc(C(F)(F)F)cc1Cl | i
Cn1c(N)c(C(=O)NCc2ccccc2)sc1=S | i
Clc1ccc(CN=C2Nc3ccccc3CS2)cc1 | 0.1
c1ccc2sc(-c3ccc4c(c3)OCO4)nc2c1 | i
CCC(C)NC(=O)c1cc2cc3ccc(OC)cc3nc2s1 (stereo unspecified) | 1.9
Cc1cccnc1NC1OC(=O)c2ccccc21 (stereo unspecified) | 0.5
Cc1ccc(S(=O)(=O)Cc2cccc(C(=O)N3CCOCC3)c2)cc1 | 0.5
COc1ccc(C(=O)CC(=O)O)c2c1C=CC(C)(C)O2 | 0.0
CN1C(=O)/C(=C2\SC(=S)N(CC3CCCO3)C2=O)c2ccccc21 (stereo unspecified) | 1.6
CCOCCCNC(=O)CCNC(=O)c1cc(OC)c(OC)c(OC)c1 | i
CCOC(=O)c1c(C)nc2sc3c(=O)n(-c4ccc(C(C)=O)cc4)cnc3c2c1-c1ccc(Cl)cc1 | 0.1
COc1ccc(C/C(N)=N/OC(=O)Cc2ccccc2)cc1OC | 0.1
Cc1cc2c(c(SCC(=O)N(C)c3ccccc3)n1)C(=O)OC2 | 0.6
COc1ccc(CCNC(=O)C(=O)Nc2nccs2)cc1OC | 1.1
COc1ccccc1C1=NOC(COC(=O)c2ccc3ccccc3n2)C1 (stereo unspecified) | i
CCCCNC(=O)Cn1c(=O)oc2cc(S(=O)(=O)N3CC(C)CC(C)C3)ccc21 (stereo unspecified) | 0.8
O=C(Cc1ccc(-n2c(=O)[nH]c3ccccc3c2=O)cc1)N1CCN(c2cccc(Cl)c2)CC1 | 1.1
Cc1cc(NC(=O)CCC(=O)N(c2cccc(F)c2)C(C(=O)NC2CCCC2)c2ccncc2)no1 (stereo unspecified) | 0.8
CCCCN(C)CCNC(=O)c1c[nH]c2ccc(S(=O)(=O)N(CC)CC)cc2c1=O | 0.6
Cc1cccc(-c2nnc3sc(-c4ccccc4)nn23)c1 | 1.0
CCCC(=O)Nc1ccc(Cl)c(NC(=O)c2ccc(Br)o2)c1 | i
COc1cccc(N2C(=O)CC(N3CCC(c4nc5ccccc5[nH]4)CC3)C2=O)c1 (stereo unspecified) | i
Cc1nnc(SC(C)C(=O)Nc2ccc3c(c2)OCCO3)s1 (stereo unspecified) | i
COc1cccc(-c2cc(C(=O)N3CCN(c4ncccn4)CC3)c3ccccc3n2)c1 | i
O=C(NCC(=O)N(c1cccnc1)C(C(=O)NC1CCCCC1)c1cccnc1)c1ccco1 (stereo unspecified) | i
COc1ccc(CCN(C)C(=O)CSc2nccn2C)cc1OC | 0.5
C=CCn1c(Cc2csc(N)n2)nnc1SCC(=O)OCC | 1.1
CC(C)C1C(C#N)=C(N)Oc2n[nH]c(-c3ccc4ccccc4c3)c21 (stereo unspecified) | i
Cc1oc(-c2cccs2)nc1CS(=O)CC(=O)NCCc1ccccc1 (stereo unspecified) | 1.1
O=C(NNC(=O)C1CCN(S(=O)(=O)c2ccc(Cl)cc2)CC1)c1ccc(Cl)cc1 | i
CCOC(=O)CC(NS(=O)(=O)c1ccc(NC(C)=O)cc1)c1ccc(OCC)cc1 (stereo unspecified) | 0.0
CC(=O)c1ccc(Oc2ccc(C(C)=O)cc2)cc1 | i
Cc1ccccc1C1C(C#N)=C2NC(=O)c3c(sc4c3CCCCC4)N2C2=C1C(=O)CC(C)(C)C2 (stereo unspecified) | i
Cc1ccc(NS(=O)(=O)c2ccc(C)c(C(=O)N3CCN(C)CC3)c2)cc1 | 0.0
O=C(CCC(=O)Nc1ccccc1)N/N=C/c1ccco1 | 2.3
CN(C)c1ccc(-c2nnn(CC(=O)Nc3ccccc3N3CCOCC3)n2)cc1 | 0.5
Cn1c(SCC(=O)N2CCOCC2)nc2sc3c(c2c1=O)CCCC3 | 5.9
Cn1c(N2CCOCC2)nc(-c2ccccc2)c1-c1ccccc1 | i
Cc1cc(NC(=O)CSc2nnc(-c3ccco3)n2CC2CCCO2)no1 (stereo unspecified) | i
Cc1cc(OCC(O)CN2CCN(C)CC2)ccc1C(C)C (stereo unspecified) | i

In another format: results already given
Cc1cc(NC(=O)CSc2nnc(-c3ccco3)n2CC2CCCO2)no1 (stereo unspecified)
  H5N1 CPE: i
O=C(CCC(=O)Nc1ccccc1)N/N=C/c1ccco1
  H5N1 CPE: 2.3

(list continues)
SMILES | H5N1 CPE
O=C(NCc1nnc(SCC(=O)N2CCC(Cc3ccccc3)CC2)o1)c1ccccc1F | 1.5
Cc1ccc(CSCCNC(=O)CCSc2ccccc2)cc1 | i
O=C(Cn1nc(Cl)nc1Cl)c1ccc2c(c1)OCCO2 | i
CS(=O)(=O)N(CC(=O)Nc1ccccc1Sc1ccccc1)c1cccc(Br)c1 | 0.5
COC(=O)c1sccc1NC(=O)CSc1cccc(Cl)c1Cl | 0.7
CCOC(=O)N1CCN(C(=O)CSCC(=O)Nc2nc(-c3ccc(-c4ccccc4)cc3)cs2)CC1 | i
CCCN1C(=O)c2cc(C(=O)Nc3ccccc3CC)ccc2C1O (stereo unspecified) | i
COC(=O)c1ccccc1NC(=O)Cn1cnc2c(cnn2-c2ccccc2)c1=O | i
CCN1C(=O)S/C(=C/c2ccsc2)C1=O | 1.2
Cc1ccc(-c2nc(C3CCN(S(=O)(=O)c4ccc(C(F)(F)F)cc4)CC3)no2)cc1 | 2.0

Part of the list above in order of molar mass, rising.
SMILES | H5N1 CPE
O=C(Cn1nc(Cl)nc1Cl)c1ccc2c(c1)OCCO2 | i
COC(=O)c1sccc1NC(=O)CSc1cccc(Cl)c1Cl | 0.7
CCOC(=O)N1CCN(C(=O)CSCC(=O)Nc2nc(-c3ccc(-c4ccccc4)cc3)cs2)CC1 | i

(listing goes on)
SMILES | H5N1 CPE
CCOC(=O)CNc1ccc2c(c1)OCO2 | 0.2
Cc1sc(NC(=O)c2cccc([N+](=O)[O-])c2)c(C(N)=O)c1-c1ccc(C(C)(C)C)cc1 | i
CCOc1cc(C(=S)N2CCCCC2)ccc1OS(=O)(=O)c1ccc(Cl)cc1 | 0.1
Cc1cccc2c1NC(C)CC2C (stereo unspecified) | 0.0
COC(=O)c1ccccc1NC(=O)Cn1c(-c2nonc2N)nc2ccccc21 | i
O=C(Nc1cccs1)NC1CCCC1 | 2.0
Cc1ccccc1NC(=O)Cn1cnc2c(oc3ccccc32)c1=O | i
CC(NC(=O)Cc1c(F)cccc1Cl)C1CCCO1 (stereo unspecified) | 0.5
COc1cccc(OC)c1C(=O)N1CCN(S(=O)(=O)c2ccc(C)cc2)CC1 | 1.1
Brc1ccc(C2=CC(c3cccs3)n3ncnc3N2)cc1 (stereo unspecified) | i

Seven entries picked at random from those above:
SMILES | H5N1 CPE
CCOC(=O)CNc1ccc2c(c1)OCO2 | 0.2
Cc1sc(NC(=O)c2cccc([N+](=O)[O-])c2)c(C(N)=O)c1-c1ccc(C(C)(C)C)cc1 | i
Brc1ccc(C2=CC(c3cccs3)n3ncnc3N2)cc1 (stereo unspecified) | i
Cc1cccc2c1NC(C)CC2C (stereo unspecified) | 0.0
CC(NC(=O)Cc1c(F)cccc1Cl)C1CCCO1 (stereo unspecified) | 0.5
CCOc1cc(C(=S)N2CCCCC2)ccc1OS(=O)(=O)c1ccc(Cl)cc1 | 0.1
COc1cccc(OC)c1C(=O)N1CCN(S(=O)(=O)c2ccc(C)cc2)CC1 | 1.1

(next part)
SMILES | H5N1 CPE
CCCCCCn1c(O)c(C=NCCN2CCCCC2)c(=O)[nH]c1=O | 0.7
Cc1ccc(-c2nc(C#N)c(NCCc3ccccn3)o2)cc1 | i
c1ccc(CCc2nn3c(C4COc5ccccc5O4)nnc3s2)cc1 (stereo unspecified) | i
NS(=O)(=O)c1ccc(CCNC(=O)CNC(=O)C2CCCCC2)cc1 | i
Cn1c(SCC(=O)N2CCCc3ccccc32)nnc1-c1ccco1 | 1.8
CC(C)n1c(NCc2nc3ccccc3n2C)nc2ccccc21 | 2.3
C=CCSc1nnc(NC(=O)CSc2nc3ccccc3[nH]2)s1 | 0.4
CCCC1(c2ccccc2)NC(=O)N(CCN2C(=O)c3ccccc3C2=O)C1=O (stereo unspecified) | i
CN1CCN(c2ccc([N+](=O)[O-])c(Sc3nc4ccccc4[nH]3)c2)CC1 | i
O=C(Nc1nncs1)Oc1ccccc1 | 3.0
CCOC(=O)c1c(C)[nH]c(C(=O)COC(=O)c2ccncc2)c1C | 0.3
Nn1c(Nc2ccccc2)nc2ccccc21 | i
COc1ccc(N(C)C(=O)CCS(=O)(=O)c2cccc3nonc23)cc1 | 3.0
CC1CCN(C(=O)C2CCC(CNS(=O)(=O)c3cccc4cccnc34)CC2)CC1 (stereo unspecified) | 1.4
CC(=O)c1cccc(NS(=O)(=O)N2CCCCC2)c1 | 0.1
O=C(Oc1ccccc1C(=O)N1CCOCC1)c1ccccc1 | 0.1
C=CCn1cnc2scc(-c3ccc(CC)cc3)c2c1=O | 0.2
CCN1C(=O)/C(=C2/Sc3ccccc3N2CCCS(=O)(=O)O)SC1=S | 1.2

Four entries from above, as labelled records:
COc1ccc(N(C)C(=O)CCS(=O)(=O)c2cccc3nonc23)cc1
- H5N1 CPE: 3.0
CC1CCN(C(=O)C2CCC(CNS(=O)(=O)c3cccc4cccnc34)CC2)CC1 (stereo unspecified)
- H5N1 CPE: 1.4
CC(=O)c1cccc(NS(=O)(=O)N2CCCCC2)c1
- H5N1 CPE: 0.1
O=C(Oc1ccccc1C(=O)N1CCOCC1)c1ccccc1
- H5N1 CPE: 0.1

This is a subset; rates above refer to the full screens.
